Screening data as filed in PubChem.
KCNQ2 enhance: potentiators of rat KCNQ2 potassium channel. AID 2239, 2010. Potassium voltage-gated channel subfamily KQT member 2 (Rattus norvegicus), O88943. hit rate 0.54% among 310,000. CHO-K1 KCNQ2, FluxOR thallium flux fluorescence; stronger effect = higher value. B-score at 10 µM;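 active = fluorescence ratio B-score at least 3 SD of library B-scores, with initial fluorescence B-score within 3 SD, cut at about 5.3 in these data; same plate scores as AID 2156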;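 also: B-score of peak minus minimum over baseline fluorescence ratio after K+ and Tl+ stimulus; positive B-score means potentiation of KCNQ2 with more thallium influx and brighter signal; only the inactives scoring about 0 or higher are listed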
Target sequence (O88943 whole entry, looked up): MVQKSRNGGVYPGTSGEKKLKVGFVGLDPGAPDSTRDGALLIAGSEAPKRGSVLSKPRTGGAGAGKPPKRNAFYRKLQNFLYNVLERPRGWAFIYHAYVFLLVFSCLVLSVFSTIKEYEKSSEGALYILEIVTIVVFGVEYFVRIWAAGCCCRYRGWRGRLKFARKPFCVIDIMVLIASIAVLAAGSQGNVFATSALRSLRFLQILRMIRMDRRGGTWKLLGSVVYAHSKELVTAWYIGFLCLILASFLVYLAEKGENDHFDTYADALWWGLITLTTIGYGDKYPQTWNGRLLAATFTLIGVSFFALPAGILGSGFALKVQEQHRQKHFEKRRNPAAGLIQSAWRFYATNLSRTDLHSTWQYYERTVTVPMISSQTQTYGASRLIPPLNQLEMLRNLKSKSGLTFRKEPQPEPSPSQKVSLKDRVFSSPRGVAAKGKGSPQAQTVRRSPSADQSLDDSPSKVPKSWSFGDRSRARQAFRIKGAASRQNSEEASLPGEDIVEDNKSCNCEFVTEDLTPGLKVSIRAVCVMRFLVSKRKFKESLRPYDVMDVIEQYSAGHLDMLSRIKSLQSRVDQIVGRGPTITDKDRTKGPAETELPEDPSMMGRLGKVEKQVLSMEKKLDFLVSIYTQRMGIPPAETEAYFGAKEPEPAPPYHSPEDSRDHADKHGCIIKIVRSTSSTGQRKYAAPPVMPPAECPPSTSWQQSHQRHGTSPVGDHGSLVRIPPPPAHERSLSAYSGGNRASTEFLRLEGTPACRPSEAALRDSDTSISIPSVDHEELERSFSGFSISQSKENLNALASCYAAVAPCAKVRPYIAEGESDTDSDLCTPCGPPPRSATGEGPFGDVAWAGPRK
KCNQ2 enhance baseline: also measured in KCNQ2 enhance; calls as there; B-score; compound at 10 µM; measured here: initial fluorescence intensity artifact check;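 brightness before thallium and not channel activity; 0 = typical well and far values either way flag optical interference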
Starred values were filed as active, the others as inactive. Not all compounds are listed; the hit share may differ from the screen's.

SMILES	KCNQ2 enhance	KCNQ2 enhance baseline
CCN(CC)S(=O)(=O)c1ccc(C)c(NC(=O)CNc2cccc(S(=O)(=O)N3CCCC3)c2)c1	0.05	-0.1
CCOc1ccc(C(C)NC(=S)NC2CCCCC2)cc1OCC (stereo not given)	2.34	0.66
COc1ccc(NC(=O)CSc2nnc(Cn3cnc4ccccc43)o2)cc1	0.69	0.13
O=C(O)CC1C(=O)NCCN1Cc1cccs1 (stereo not given)	1.31	-0.18
CC1CCCCN1S(=O)(=O)c1ccc(C(=O)Nc2nnc(C3CC3)o2)cc1 (stereo not given)	2.13	0.37
O=C(Nc1cccc(O)c1)c1ccccc1	1.59	2.01
COc1ccc(CCNc2ncnc3cc(OC)c(OC)cc23)cc1OC	2.13	0.1
Cc1cccc(NS(=O)(=O)c2cc3c(cc2C)N(C)CCO3)c1	0.15	-1.4
Cc1ccc(NC(=O)CC(O)(C(F)(F)F)C(F)(F)F)c(Br)c1	8.74*	0.66*
CCc1nc(SCC(=O)NNC(=O)C2CCCCC2)c2ccccc2n1	0.28	-0.01
Cc1ccc(C(=O)N/C(=C/c2cccc([N+](=O)[O-])c2)C(=O)NCC2CCCO2)cc1 (stereo not given)	1.72	-0.05
NS(=O)(=O)c1ccc(NC(=O)COC(=O)c2ccco2)cc1	0.2	1.86
Cc1cc(C)c2cc(CN(CCCO)S(=O)(=O)c3ccccc3F)c(=O)[nH]c2c1	0.94	0.67
O=C(CC12CC3CC(CC(C3)C1)C2)NCC(c1ccc(F)cc1)N1CCOCC1 (stereo not given)	11.2*	0.99*
CCOc1ccc(-c2c(C(=O)N/N=C/c3ccccc3)nnn2-c2nonc2N)cc1	1.29	1.33
O=C(NCc1ccncc1)c1cc(-c2ccc(Cl)cc2)oc1C(F)(F)F	0.24	-0.72
COc1ccccc1/C=C/C1(C(=O)NC2CCCC2)CC(=O)N1c1ccccc1 (stereo not given)	0.35	1.33
CC(=O)Nc1ccc(S(=O)(=O)NCCC(=O)Nc2cccc(Cl)c2)cc1	0.3	0
COc1cccc(-n2nnnc2SCC(=O)Nc2cccc(NC(C)=O)c2)c1	0.98	-0.19
O=C(NCCOc1ccccc1)c1ncn[nH]1	1.93	-2.21
O=C(NN1C(=O)c2ccccc2C1=O)c1ccc2c(c1)C(=O)N(CC1CCCO1)C2=O (stereo not given)	2.11	-0.73
COC(=O)C(C(=O)OC)C(C[N+](=O)[O-])c1ccc(OC)c(OC)c1 (stereo not given)	0.17	-1.12
NS(=O)(=O)c1cccnc1Nc1cccc(Cl)c1Cl	1.19	-1.36
CCOC(=O)N1CCC(NC(=O)C2CCCN(S(C)(=O)=O)C2)CC1 (stereo not given)	0.21	-0.68
O=C(Cc1ccccc1)NNC(=O)c1ccc(Br)o1	1.55	-0.27
O=C1c2ccccc2C(=O)N1CCc1ccccn1	0.2	0.02
CCOC(=O)c1cc(C#N)c(SCC(=O)c2cc(C#N)c(SC)nc2C)[nH]c1=O	0.22	-1.22
O=C(CN1C(=O)CC(c2ccccc2)S(=O)(=O)c2ccccc21)N1CCCC1 (stereo not given)	0.08	1.32
CCOC(=O)C1CCN(C(=O)C(C)c2ccc([N+](=O)[O-])cc2)CC1 (stereo not given)	1.47	-0.49
Cc1ccnc(NC(=O)CCC(=O)N(CC(=O)NC2CCCCC2)c2ccc3c(c2)OCO3)c1	0.4	2.04
COc1cc(C(=O)Nc2ccc3c(c2)ncn3C)cc(OC)c1OC	0.69	-3.76
Cc1ccc(CS(=O)(=O)c2ncn[nH]2)cc1	0.19	-0.04
CCN1C(=O)/C(=C\c2cccs2)C(C(=O)OC)=C1C	0.57	0.02
Cc1ccc(NC(=O)NCCN2CCN(c3ccccc3)CC2)cc1Cl	0.3	1.2
Cc1ccc(S(=O)(=O)N(CC(=O)N(C(C)C)C(C)C)C(=O)N2CCN(C)CC2)cc1	0.64	-0.2
COC(=O)C(=Nc1ccccc1)/C(C(=O)C(=O)N(C)c1ccccc1)=C(\O)c1ccccc1	0.44	1.09
CCCC(=O)n1nc(-c2ccco2)nc1SCc1ccccc1	0.24	0.5
COc1ccccc1NC(=O)NCC(=O)Nc1c(C)cccc1C	0.34	0.91
Cc1ccccc1OCCn1c(C)nc2ccccc21	0.45	1.53
CCc1ccc(-n2c(=O)c3c(C)c(C(=O)N(C)C)sc3n(CC(=O)NCC3CCCO3)c2=O)cc1 (stereo not given)	2.96	-0.57
CCCCn1c(N)c(N(CC(C)C)C(=O)CCCc2nc3ccccc3s2)c(=O)[nH]c1=O	2.63	-0.14
COc1cccc(-c2ccc(SCC(=O)N3CCN(c4ccccc4)CC3)nn2)c1	0.85	-1.53
CCOC(=O)[C@@H]1[C@H]2COc3ccccc3[C@H]2N2C(=O)N(c3ccc(F)cc3)C(=O)[C@]12C	0.69	1.66
S=c1[nH]nc(-c2ccco2)n1/N=C/C(Cl)=C/c1ccccc1	7.22*	0.7*
COc1ccc(C(O)c2nccn2Cc2ccccc2)cc1 (stereo not given)	0.05	-0.16
Cc1ccc(/C(N)=N/OC(=O)c2cccs2)cc1	0.36	-0.32
CCc1cc2c(-n3nc(C)cc3C)ncnc2s1	0.09	-0.08
O=C(O)CSCc1c(F)cccc1Cl	0.15	-0.52
CC(C)C(=O)Nc1ccc(C(=O)NNC(=O)C(c2ccccc2)c2ccccc2)cc1	1.04	-0.92
Cc1ccc(NC(=O)C2CCCN(c3ncccn3)C2)c(C)c1 (stereo not given)	1.88	0.47
Continued:
SMILES	KCNQ2 enhance	KCNQ2 enhance baseline
CS(=O)(=O)N(CC(=O)N1CCCC1)c1cccc(F)c1	1.15	-2.36
O=C(COc1ccc(Cl)cc1Cl)NNC(=S)NC(=O)c1ccco1	0.08	0.09
O=C(NC(=S)Nc1cccc(NC(=O)c2ccccc2Cl)c1)c1cccs1	0.05	-0.63
CCc1ccc(C(=O)NNC(=O)c2cccc(N3C(=O)CCC3=O)c2)cc1	1.11	0.72
CCOC(=O)C1CCCN(C(=O)CCc2ccccc2)C1 (stereo not given)	1.12	5.83
CCOC(=O)C1CCN(C(=O)C2CCCN2S(=O)(=O)c2ccc(Cl)cc2)CC1 (stereo not given)	0.44	-0.1
Cc1cc(C)cc(NC(=O)c2cccc(NC3=NC4CS(=O)(=O)CC4S3)c2)c1 (stereo not given)	0.31	-1.04
CCOC(=O)c1sc(NC(=O)CN2C(=O)c3cccc4cccc(c34)C2=O)nc1C	0.07	-0.55
Cn1cc(Cl)c(-c2n[nH]c(=S)n2C2CCCCC2)n1	2.02	0.05
O=C1CNCc2[nH]c3ccccc3c2N1c1ccccc1	0.06	-2.31
CCCCc1cc(=O)oc2cc(OCC(=O)NCc3ccccn3)ccc12	0.76	0
COc1cccc2[nH]c(=O)c(-c3ccccc3)cc12	1.52	-3.13
CCCN1CCC(=O)N([C@H](CO)Cc2ccccc2)CC1	1.64	0.05
O=C(CSc1nc(-c2ccccc2)nc2c1Cc1ccccc1O2)Nc1ccccc1	0.67	-1.24
Cc1ccc(NC(=O)c2ccccc2)cc1-n1cnnn1	1.69	-0.02
O=C(Nc1cccc([N+](=O)[O-])c1)c1ccc(CN2CCOCC2)cc1	0.29	0.1
COc1ccc(CCNC(=O)CN(c2ccc(OC)c(OC)c2)S(C)(=O)=O)cc1	0.27	1.16
CCN(Cc1ccccc1)S(=O)(=O)c1c(C(=O)N2CCCC2)c(C)n(C)c1C	0.13	0.24
COCCNc1oc(-c2ccc(F)cc2)nc1C#N	1.31	-0.81
COCC(C)NCc1cc(Br)ccc1OC (stereo not given)	0.88	-1.69
CN1CCC/C1=C1/C(=O)N(c2ccccc2)N=C1NC(=O)Nc1cccc(Cl)c1	1.35	0.25
O=C(CSCc1cccc(Cl)c1)NCc1ccc2c(c1)OCO2	2.81	1.43
c1ccc2c(c1)OCCOCCOc1ccccc1OCCOCCO2	0.91	-0.74
Cc1ccc(S(=O)(=O)NCC(=O)Nc2cccc([N+](=O)[O-])c2)cc1	0.34	0.38
CCC(C(=O)NC(C)(C)C)N(Cc1ccco1)C(=O)CNS(=O)(=O)c1ccc(OC)cc1 (stereo not given)	0.93	-0.84
Cc1ccc(NC(=O)COC(=O)c2ccc(Cl)cc2)cc1S(=O)(=O)N(C)C	1.32	-0.37
c1ccc2c3c([nH]c2c1)C1(CCCCC1)NCC3	0.09	-0.04
Cc1ccc(S(=O)(=O)N2CC(=NN=C(N)N)C2)cc1	0.81	-0.56
Cn1cc(/C=C2\SC(=O)N(c3ccc(O)cc3)C2=O)c2ccccc21	0.03	1.06
c1ccc(CNc2ncnc3nc[nH]c23)nc1	0.72	1.98

3 compounds picked at random from the list so far, as already listed:
SMILES	KCNQ2 enhance	KCNQ2 enhance baseline
CN1CCC/C1=C1/C(=O)N(c2ccccc2)N=C1NC(=O)Nc1cccc(Cl)c1	1.35	0.25
CCC(C(=O)NC(C)(C)C)N(Cc1ccco1)C(=O)CNS(=O)(=O)c1ccc(OC)cc1 (stereo not given)	0.93	-0.84
O=C(CSCc1cccc(Cl)c1)NCc1ccc2c(c1)OCO2	2.81	1.43

Other compounds:
SMILES	KCNQ2 enhance	KCNQ2 enhance baseline
O=C(c1cc(-c2ccccc2Cl)nc2ccccc12)N1CCC1	0.68	-0.7
CS(=O)(=O)N1CCN(C(=O)c2cccnc2)CC1	2.17	-0.34
CCC(=O)Nc1ccc(C(=O)OCc2ccccc2)cc1	1.72	0.83
Cc1ccc(N2CC(C(=O)N3CCOCC3)CC2=O)cc1C (stereo not given)	1.75	-0.15
Cc1ccc2c(Cl)c(C(=O)Nc3nn[nH]n3)sc2c1	0.97	-0.05
O=C(Cn1cnc2ccccc2c1=O)N1CCN(c2ccc(F)cc2)CC1	0.5	-0.06
Oc1c(Br)cc(Br)c(/C=N/n2c(-c3ccccc3)n[nH]c2=S)c1Br	1.43	-0.51
Cc1ccc(S(=O)(=O)N2CCN(S(=O)(=O)N3CCCCC3)CC2)c(C)c1	0.52	0.89
C/C=C/C(=O)Nc1ccccc1Br	0.94	-0.86
CCOc1ccc(N2C=Nc3ccc(OCC)cc3C2)cc1	1.09	-0.2
COCCN1C(=O)C(=O)/C(=C(/O)c2ccc(S(=O)(=O)N3CCCCC3)cc2)C1c1ccc(OC)c(OC)c1 (stereo not given)	0.42	-1.6
COc1ccc(C(C)(C)C)cc1NC(=O)Cn1cnnn1	1.06	-0.26
Cc1ccc(C2(C)NC(=O)N(CC(=O)NNC(=O)c3cc(C)oc3C)C2=O)cc1 (stereo not given)	0.11	0.79
CCc1ccc2c(c1)cc(CN(C(=S)Nc1ccccc1C)C1CC1)c1nnnn12	1.08	-0.57
O=c1c2c3c(sc2n(CCN2CCCC2)c(=O)n1Cc1ccccc1)CCCCC3	0.02	-0.91
O=C(O)C(c1ccccc1)N1C(=O)/C(=C\c2ccc(-c3cccc(Cl)c3)o2)SC1=S (stereo not given)	0.29	-0.44
Cc1cc(NC(=O)Nc2ccccc2[N+](=O)[O-])no1	2.24	-0.08
Cc1ccc(-n2c(O)c(C=Nc3ccc(S(=O)(=O)Nc4ncccn4)cc3)c3ccccc3c2=O)cc1C	0.22	0.01
Cc1ccc(-c2oc3ccccc3c(=O)c2O)cc1	5.64*	1.92*
CCCN(CCC)S(=O)(=O)c1ccc(C(=O)N2CC3CCC(CC3)C2)cc1	0.56	-0.43

Full records, quoted from the list.
Results for O=C(NN1C(=O)c2ccccc2C1=O)c1ccc2c(c1)C(=O)N(CC1CCCO1)C2=O (stereo not given) : KCNQ2 enhance = 2.11; KCNQ2 enhance baseline = -0.73
Results for CC(C)C(=O)Nc1ccc(C(=O)NNC(=O)C(c2ccccc2)c2ccccc2)cc1 : KCNQ2 enhance = 1.04; KCNQ2 enhance baseline = -0.92
Results for COc1ccc(NC(=O)CSc2nnc(Cn3cnc4ccccc43)o2)cc1 : KCNQ2 enhance = 0.69; KCNQ2 enhance baseline = 0.13

(continued)
SMILES	KCNQ2 enhance	KCNQ2 enhance baseline
N#Cc1nc(-c2ccc(OCc3ccc(Cl)cc3)cc2)oc1NCCCn1ccnc1	0.19	0.44
Cc1ccc2c(c1Br)/C(=N/N1C(=O)c3ccccc3C1=O)C(=O)N2	0.24	0.95
CCc1ccc(S(=O)(=O)NCc2cn3cccc(C)c3n2)s1	1.13	0.44
O=C(Cc1ccccc1[N+](=O)[O-])N1CCN(c2ccccc2F)CC1	0.06	-0.11
Cc1cccc(OCc2cc(-c3ccccc3)no2)c1C	0.35	-0.61
O=C(CSc1nnc(-c2ccco2)o1)NCC(=O)c1ccccc1	0.66	-0.75
Cn1c(=O)cc(C(=O)N/N=C/c2ccc(F)cc2)[nH]c1=O	0.86	0.18
O=C(CN(C(=O)CCC(=O)Nc1nccs1)c1ccc2c(c1)OCO2)NCc1ccc(F)cc1	1.1	0.07
CSCCC(NC(=O)c1ccc(Cl)cc1Cl)C(=O)NCc1ccncc1 (stereo not given)	0.11	0.08
O=[N+]([O-])c1ccc(Oc2ccc(S(=O)(=O)N3CCCCC3)cc2)cc1	0.53	2.21

By substructure: the compounds so far with a CF3 group (two)
SMILES	KCNQ2 enhance	KCNQ2 enhance baseline
Cc1ccc(NC(=O)CC(O)(C(F)(F)F)C(F)(F)F)c(Br)c1	8.74*	0.66*
O=C(NCc1ccncc1)c1cc(-c2ccc(Cl)cc2)oc1C(F)(F)F	0.24	-0.72

Next part:
SMILES	KCNQ2 enhance	KCNQ2 enhance baseline
O=C1c2ccccc2S(=O)(=O)c2cc(C(=O)N3CCN(c4ncccn4)CC3)ccc21	0.55	-0.29
Cc1ccc(OCCSCc2nnc(NC(=O)Nc3cccc(Cl)c3)s2)cc1	0.63	1.29
O/N=C1/CCc2cccc3cccc1c23	1.4	-0.92
COc1ccc(N2C(=O)CCC2(C(N)=O)c2ccccc2)cc1 (stereo not given)	1.26	-1.54
Cc1cccc(-c2nc(CS(=O)CC(=O)N3CCCCC3)c(C)o2)c1 (stereo not given)	0.79	1.06
